Menin-MLL FL inh – displaces fluorescein MLL peptide from human menin. Fluorescence polarization, fluorescein-MLL peptide displacement from menin. FP activity change, % at 61.4 µM. 290,000 tested, under 10 active. AID 1766; inconclusive = falling polarisation curve, or a change in total fluorescence; inactive = total fluorescence flat and polarisation flat or rising; no compound was filed as active; the % refers to the polarisation; negative = inhibition;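 also: % of control where 0% means no effect; inhibitors lower the polarisation; unlabelled MLL peptide was the positive control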
TRPML1 inh – human mucolipin-1 channel inhibition. Q9GZU1. TRPML1-inducible cells, Ca2+ dye fluorescence, FDSS; active compounds read low; inhibition of EC80 agonist-evoked calcium signal. activity change, negative = inhibition, % (no concentration beside the values). hit rate 0.02% among 390,000. AID 624415; in the data active means activity change below about -50%; inconclusive means about -30% to -50%; inactive means above about -30%;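 also: stimulus is agonist 54-4 at its EC80 concentration; % is scaled to controls: 0 for no effect and ±100 for the full control effect; compound concentration not given in the record; the text of the record puts the active cut at -80%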
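TRPML1-DL cells, Tet-induced overnight (~16 h, 37 °C) at 1,500 cells/well, were loaded with Ca8 no-wash dye plus quencher for 45-90 min at room temperature. Compounds were pinned during FDSS kinetic reading; agonist 54-4 at EC80 (4 uM final) then added.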
gsp antag – antagonizes gsp, the McCune-Albright syndrome mutation; gsp-mutant cells, cAMP HTRF, 30 min; control for the full effect not named in the record; Potency, µM (highest dose often 76.9 µM), for inactives: top-dose activity change, negative = inhibition, actives largely listed as inhibitors; hit rate 0.4% among 340,000; active = falling curve of any shape with a large fitted effect; inconclusive = falling curve, mostly with a smaller effect; inactive = flat or rising curve; cell line not stated here;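 also: intracellular cAMP measured with PDE inhibitor Ro 20-1724 present during compound exposure; potency is read from the fitted curve at half-maximal effect; % is scaled to controls: 0 for no effect and ±100 for the full control effect; nearly all actives have a fitted effect of over 65% in size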
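Cells, 2000/well, grown 16–24 h in DMEM 10% FBS with 0.5 mg/ml G418, then compounds plus […] (300 uM addition stock), 30 min at 37C. cAMP read by HTRF (cAMP-d2 and anti-cAMP antibody-K in lysis buffer) after 30 min RT.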
ClpP mod – qHTS Assay for Activators of ClpP. purified B. subtilis ClpP, FRET peptide cleavage, 20 min. hit rate 1.9% among 340,000. Potency, µM (titrated, usually from 57.5 µM), for inactives: at the highest dose activity change, negative = active. ATP-dependent Clp protease proteolytic subunit (Bacillus subtilis (strain 168)), P80244; active = well fitted falling curve with a large enough effect; inconclusive = small, poorly fitted or top-dose-only effect; inactive = no such curve, though single readings can be large or run the other way; also: potency is read from the fitted curve at half-maximal effect; the source files actives as falling curves though it sought activators and does not explain the sign; nearly all actives have a fitted effect of over 65% in size; many hits overshoot -100%
Target sequence (P80244 whole entry, looked up): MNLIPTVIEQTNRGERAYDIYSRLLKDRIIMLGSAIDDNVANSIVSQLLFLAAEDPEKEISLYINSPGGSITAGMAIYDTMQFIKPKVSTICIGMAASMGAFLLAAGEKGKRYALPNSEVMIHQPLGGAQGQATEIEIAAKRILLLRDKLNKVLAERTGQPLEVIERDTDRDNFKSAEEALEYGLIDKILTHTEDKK
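ClpP 10 microg/mL final, pH 8 Tris/KCl buffer with BSA, glycerol, Tween-20; compound pinned in; FRET-FV substrate; RT 20 min; Ex320/Em430; ΔFRET vs ADEP 5.8 microM, DMSO, no enzyme.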
gsp ag – activates gsp, the McCune-Albright syndrome mutation; Potency, µM (top dose mostly 76.9 µM), for inactives: at the highest dose activation (cAMP increase), hits mostly activators; gsp mutant cells, cAMP HTRF, 30 min; control for the full effect not named in the record; hit rate 0.13% among 340,000; AID 624287; active = well fitted activation curve with a large enough effect; inconclusive = small, poorly fitted or top-dose-only effect, or another doubt; inactive = no such curve, though single readings can be large or run the other way; cell line not stated here;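 also: phosphodiesterase inhibitor Ro 20-1724 added with compounds to block cAMP breakdown; potency is read from the fitted curve at half-maximal effect; nearly all actives have a fitted effect of over 60% in size; about a fifth of the inactives were tested at one dose only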
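Cells in DMEM/10% FBS with G418 were pretreated with compounds in DMSO plus […] (300 uM stock) for 30 min at 37C. cAMP was measured by HTRF (cAMP-d2 plus anti-cAMP antibody-K) after 30 min at room temperature.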
Sfp PPTase inh – blocks B. subtilis Sfp PPTase activity | Q9F4F7 | Biochemical Sfp PPTase activity, qHTS | Potency, µM, for the others: max response, negative = inhibition, most hits filed as inhibitors | hit rate 3.5% among 310,000; active = well fitted inhibition curve with a large enough effect; inconclusive = small, poorly fitted or top-dose-only effect, or another doubt; inactive = no such curve, though single readings can be large or run the other way;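 also: the enzyme is Sfp with the accession as filed and its product quenches rhodamine fluorescence; potency is read from the fitted curve at half-maximal effect; 0% = enzyme reaction without inhibitor and -100% = no enzyme wells; top concentration of the series not given in the record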
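Step 1, compound plus 15 nM Sfp-PPTase, 15 min, room temperature. Step 2, add rhodamine-CoA (5 uM) and BHQ-2-YbbR (12.5 uM). Step 3, read 525/598 nm fluorescence at 0 and 30 min.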
TRPV1 potentiator – enhances activation of the human vanilloid receptor TRPV1. AID 540277. Q8NER1. hit rate 0.02% among 320,000. TRPV1-expressing cells, Fluo-8 calcium influx, capsaicin EC20 potentiation; host cell line not named in the record; control for the full effect not named in the record. potentiation, % at 8.33 µM; active means potentiation above 80%; inconclusive means 30% to 80%; inactive means below 30%; also: 0% is about no effect
Target sequence (Q8NER1 whole entry, looked up): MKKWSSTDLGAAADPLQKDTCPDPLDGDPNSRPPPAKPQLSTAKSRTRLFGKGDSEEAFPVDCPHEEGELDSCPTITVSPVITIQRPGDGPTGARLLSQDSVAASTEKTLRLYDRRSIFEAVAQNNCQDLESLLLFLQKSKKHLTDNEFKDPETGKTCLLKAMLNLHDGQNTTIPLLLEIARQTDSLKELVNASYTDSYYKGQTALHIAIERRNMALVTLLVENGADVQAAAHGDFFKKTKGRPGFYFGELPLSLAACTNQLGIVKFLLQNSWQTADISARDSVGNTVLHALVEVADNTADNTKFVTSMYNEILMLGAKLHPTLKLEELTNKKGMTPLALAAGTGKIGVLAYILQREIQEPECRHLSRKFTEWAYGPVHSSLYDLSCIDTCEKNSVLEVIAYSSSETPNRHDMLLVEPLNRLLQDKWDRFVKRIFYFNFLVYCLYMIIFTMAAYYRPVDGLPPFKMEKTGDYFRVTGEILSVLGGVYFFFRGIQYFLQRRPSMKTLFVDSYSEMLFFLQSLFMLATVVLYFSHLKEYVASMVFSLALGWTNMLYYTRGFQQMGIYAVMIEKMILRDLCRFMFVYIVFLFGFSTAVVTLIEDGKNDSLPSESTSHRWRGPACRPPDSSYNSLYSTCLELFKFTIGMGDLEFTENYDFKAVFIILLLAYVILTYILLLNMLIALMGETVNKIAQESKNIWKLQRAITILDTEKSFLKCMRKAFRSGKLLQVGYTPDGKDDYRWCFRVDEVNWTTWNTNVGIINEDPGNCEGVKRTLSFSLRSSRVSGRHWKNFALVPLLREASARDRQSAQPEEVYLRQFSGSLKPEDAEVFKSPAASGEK
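Fluo-8 calcium influx in TRPV1-expressing cells, kinetic read (ex 480/em 520 nm). Compound added and read 3 min for agonist activity, followed by capsaicin at EC20 final and 2 min further read for enhancement.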
Starred values were filed as active, the others as inactive; ? = inconclusive; . = not tested or not shown; & = joins results of further samples; [ ] = remark or other dose. This is a random part of the collection; 4.9% or so of the library scored in one or more.

SMILES | Menin-MLL FL inh | TRPML1 inh | gsp antag | ClpP mod | gsp ag | Sfp PPTase inh | TRPV1 potentiator
CC(OC(=O)CCCc1c[nH]c2ccccc12)C(=O)Nc1ccc(S(N)(=O)=O)cc1 (stereo not given) | . | 8 | -5% | -0.1% | 4%[15.4 µM] | . | 7
CCn1c(C)nc2cc(C(=O)NNC(=S)Nc3ccc(Cl)cc3Cl)ccc21 | -2.4 | 2 | -8% | -15% | -25% | -5% | 2
Cc1ccc(S(=O)(=O)N/N=C/c2cn(C)nc2C)cc1 | 3.0 | 7 | 0%[15.4 µM] | -1.2% | -31%[inhibitor] | 10% | -3
CC(N)C12CC3CC(CC(C3)C1)C2 (stereo not given) | -0.5&4.0&3.6&-1.3 | -9&9 | 12%&-1% | -0.5%&-1.9% | 0%[15.4 µM] | 10%&22%&5%&11% | -1&0
NS(=O)(=O)c1cc2c(cc1Cl)NC(Cc1ccccc1)NS2(=O)=O (stereo not given) | -5.0 | 18 | 7% | -0.9% | -28% | 11% | 30
CC(C)Oc1ccc(C(=O)/C=C2/C(=O)Nc3ccccc32)cc1 | -0.2 | -22 | -3% | 1.2% | ? | -21% | -20
O=C(c1c(F)cccc1F)N(Cc1ccccn1)C1CCCC1 | -1.3 | 5 | 8% | 0.0% | -24% | 0% | 5
CCOc1cc(NC(=S)NCCCN2CCOCC2)c(OCC)cc1NC(=O)c1ccc(OC)cc1 | -7.1 | 40 | -2% | -6.6% | -3% | 12% | -8
CN(C)S(=O)(=O)c1ccc(NC(=O)COC(=O)Cn2[nH]c(=O)c3ccccc3c2=O)cc1 | -0.3 | . | -1% | -3.1% | 23% | 10% | 5
CCCCCC(=O)Nc1ccc(Cl)cn1 | -1.8 | 24 | 10% | 2.2% | ? | 1% | .
Cc1nn2c(NCc3ccccn3)c3c(nc2c1-c1ccccc1)CCC3 | -1.1 | -6 | ? | . | -1%[15.4 µM] | -18% | -3
CN(C1CCCCC1)S(=O)(=O)c1ccc(NC(=O)CCC(=O)O)cc1 | 3.3 | 0 | -3% | 0.5% | ? | -5% | -3
CC(=O)OC1COC(n2ccc3ccccc32)C(OC(C)=O)C1OC(C)=O (stereo not given) | 1.9 | -13 | -11% | -1.3% | -6% | 14% | 7
O=C(CN1C(=O)NC2(CCCCCCC2)C1=O)N1CCOCC1 | 1.9 | -3 | -3% | 0.1% | 12% | 19% | -6
COc1ccc(NS(=O)(=O)c2ccc(NC(=O)C(C)(C(F)(F)F)C(F)(F)F)cc2)nn1 | 5.2 | 8 | 1% | -0.2% | ? | 20% | 13
CCOC(=O)C1CCCN(C(=O)CN2C(=O)C(CC)Oc3ccc(C)cc32)C1 (stereo not given) | -0.3 | -2 | -16% | 0.0% | -3% | -2% | -2
Cc1c(C(=O)N2CCCC(C(F)(F)F)C2)oc2ccccc12 (stereo not given) | . | -3 | 8% | 1.5% | -17% | . | -6
Cc1ccc(CSc2nnc(-c3cccnc3)n2N)cc1 | -0.6 | 4 | 9% | 0.2% | -19% | 26% | 9
CN(Cc1ccccc1)CC(O)COc1ccc(CNCc2ccc(Cl)s2)cc1 (stereo not given) | -4.4 | 25 | 18% | . | ? | ? | 14
O=C(Nc1nc2ccccc2[nH]1)c1ccccc1 | 0.1 | 37 | -5% | -1.0% | 1% | 19% | -12
CCOC(=O)NC1CCS(=O)(=O)C1 (stereo not given) | -10 | 5 | 11% | 0.6% | ? | 16% | 13
COc1ccc(C(C(=O)NCC2CCCO2)N(Cc2ccco2)C(=O)c2snc(C(N)=O)c2N)cc1OC (stereo not given) | . | 18 | -2% | -19% | -25% | 17% | 4
C/C(=N\NC(=O)c1nnn(-c2nonc2N)c1C)c1ccc(-c2ccccc2)cc1 | . | -22 | 4% | . | 15% | 4% | -3
COc1cc(OC)cc(C(=O)Nc2ccc(S(=O)(=O)Nc3ccccn3)cc2)c1 | 0.5 | -13 | -27% | . | ? | 24% | -3
COc1cc(CN2CCN(C(=O)CC(C)C)CC2)cc(OC)c1OC | 0.3 | -8 | 21% | 0.1% | -21% | ? | 25
CC1(C)O[C@H]2CC(=O)OC[C@]23[C@H]2CC[C@@]4(C)[C@H](c5ccoc5)OC(=O)[C@H]5O[C@]54[C@]2(C)[C@@H](O)C[C@@H]13 | . | -4 | -5% | 0.6% | . | . | -4
O=C1c2ccccc2-c2ncnc3c(N4CCOCC4)cc(N4CCOCC4)c1c23 | -14 | -10 | -1% | 0.4% | 4% | 8% | -3
O=C(CSc1n[nH]c(-c2ccccn2)n1)Nc1ccccc1 | . | 6 | -10% | -3.9% | -36%[inhibitor] | -19% | 11
CCn1c(SCC(=O)Nc2cc(C)on2)nc2c(c1=O)SC(C)C2 (stereo not given) | -1.0 | 9 | -8% | -1.4% | 7% | 18% | -2
O=C1c2ccccc2[C@@H]2C[C@H]3O[C@H]3CCN12 | . | 3 | 7% | -1.5% | . | . | .
Cc1nnc(Oc2ccccc2F)c2ccccc12 | -2.8 | 87 | -5% | 0.9% | -61%[inhibitor] | -10% | 5
O=C(Nc1ccc2c(c1)OCCO2)c1cccc(S(=O)(=O)N2CCCCC2)c1 | -3.2 | -1 | -8% | 0.4% | 0% | 12% | 9
COc1ccc(C2=NOC(Cn3nc(C(=O)NCc4ccccc4OC)cc3-c3ccccc3)C2)cc1 (stereo not given) | . | 29 | ? | -5.2% | . | . | 23
COc1ccccc1OCC(=O)Nc1ccc2c(c1)OCO2 | 1.2 | -7 | 0% | . | 2%[15.4 µM] | 11% | -3
CCCCN(C(C)=O)c1ccc2c(c1)C1CC2CCN1Cc1ccccc1 (stereo not given) | . | -18 | . | -0.8% | 13% | . | .
CSc1ccc(S(=O)(=O)N2CCC(C(=O)NCC3CCCO3)CC2)cc1 (stereo not given) | 2.6 | 11 | 17% | . | -5%[15.4 µM] | 4% | -24
Cc1ccc(NC(=O)/C(=C/c2ccco2)c2ccccc2)c(C)c1 | 0.1 | 3 | -22% | 1.6% | -34% | -10% | 7
C=CCn1c[n+](CC(=O)c2ccc(Br)s2)c2ccccc21 | 12 | -19 | -6% | . | 42% | -4% | 2
Cc1ccc(C)c(NC(=O)c2cc(S(=O)(=O)N3CCOCC3)cn2C)c1 | 5.6 | 2 | 7% | -3.1% | -8% | 8% | -24
CCn1nnnc1SCC(=O)Nc1ccc2c(c1)OCO2 | 0.4 | 17 | 7% | -5.9% | 0% | 19% | 2
Cc1cc(NC(=O)NC2CC(=O)N(c3ccc4c(c3)OCCO4)C2)no1 (stereo not given) | -2.0 | 12 | 5% | . | 7% | 21% | -7
CCc1ccc(CNC(=O)c2ccc(NC(=O)C3=CSCCO3)cc2)cc1 | . | 27 | 3% | -2.6% | -30% | 17% | 24
CS(=O)(=O)c1ccc2nc(NC(=O)c3ccc(N4C(=O)CCC4=O)cc3)sc2c1 | 1.8 | 3 | 19% | . | -23%[15.4 µM] | 19% | -1
COC(=O)c1cc(-c2ccc(Br)cc2)c2c(=O)[nH]c(=O)n(C)c2n1 | 3.4 | . | -4% | 4.0% | 27% | 11% | -1
CCCN(C(=O)CCSc1ccc(F)cc1)c1c(N)n(Cc2ccccc2)c(=O)[nH]c1=O | . | 31 | 5% | 1.3% | -56%[inhibitor] | 5% | -9
CN1/C(=C\C(=O)c2cccnc2Cl)C(C)(C)c2ccccc21 | 2.3 | -4 | -10% | . | -40%[inhibitor] | -22% | -9
CCOC(=O)C1=C(N)Oc2ccc3ccccc3c2C1c1ccc(O)cc1 (stereo not given) | -2.3 | 20 | -4% | -1.2% | 1% | 14% | -19
O=C(Nc1ccc(F)cc1)C1CCN(S(=O)(=O)c2ccc3[nH]c(=O)oc3c2)CC1 | . | 5 | -19% | -0.8% | -5% | 0% | -2
CCOC(=O)N1CCN(C(=O)CNC(=O)C23CC4CC(CC(C4)C2)C3)CC1 | . | -3 | 5% | 1.0% | -24% | 3% | -10
COc1cc(/C=N/NC(=O)c2c(C)nc3ccc(Cl)cn23)cc(OC)c1OC | -0.7 | 18 | 4% | . | ? | -11% | 6
COc1cccc(-c2nn(-c3ccccc3)cc2CNC(C)Cn2cncn2)c1 (stereo not given) | 2.9 | -12 | -11% | . | 11%[15.4 µM] | 4% | -19
O=C(CSc1nnc(-c2ccc(O)cc2)o1)Nc1ccccc1 | 6.9 | 6 | 8% | . | 14% | 19% | 11
Cc1cccc(-c2nc3ccccc3c(=O)n2NC(=O)c2cccnc2Cl)c1 | 0.6 | 18 | 7% | -1.2% | -4% | 6% | 22
CCOC(=O)C1CCN(c2ccc([N+](=O)[O-])cc2S(=O)(=O)N2CCOCC2)CC1 | 2.1 | 40 | -11% | -2.1% | -4% | 16% | -14
S=c1[nH]nc(Cc2cccs2)n1-c1cccc2ccccc12 | -0.2 | 3 | -1% | -0.8% | 11% | ? | -3
Cc1c(NC(=O)c2ccccc2)c(=O)n(-c2ccccc2)n1C | 1.4 | -13 | -3% | -0.7% | ? | 1% | -8
O=C(NCc1ccco1)c1ccc(CS(=O)(=O)Cc2ccc(Cl)cc2)o1 | 0.2 | -14 | 2% | -0.1% | -2% | 8% | 3
Cc1nc(-c2cc(-c3ccc(Cl)cc3)no2)cs1 | -0.4 | 27 | 0% | 0.2% | ? | 14% | 8
O=C(C1=C(O)C(=O)N(CCc2ccccc2)C1c1ccncc1)c1cc2ccccc2o1 (stereo not given) | 4.8 | -18 | 11% | . | 42%[15.4 µM] | -20% | 5
CC(C)(C)C(=O)NC(NC(=S)Nc1ccc(S(N)(=O)=O)cc1)C(Cl)(Cl)Cl (stereo not given) | -0.3 | -3 | 9% | 5.9% | 17% | 8% | 11

Screening results: PubChem, National Center for Advancing Translational Sciences (NCATS)
